CSC inhib = cancer stem cell viability inhibitors, primary screen, luminescence; cancer stem cell-like cells viability; inhibition, % at 7.5 µM; 1.1% of 300,000 active; AID 2717, 2010;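 active = mean at 75% or more and at least half the replicates too; inconclusive = mean and replicates disagree; tested in HMLE shEcad cells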;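 note: 0% = median of negative and 100% = median of positive control wells; the first replicate is given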
MT1-MMP act inh = blockers of MT1-MMP proenzyme processing, primary screen, HT1080 RFP-PRO-GFP cells, GFP/RFP fluorescence | 0.061% of 360,000 active | GFP/RFP ratio fluorescence, overnight; percent of plate control window, DMSO zero | GFP/RFP ratio change, % at 20 µM | AID 651647, 2012;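 active = GFP/RFP ratio change of at least 30% with cell ATP level not reduced by more than half and red fluorescence within 50% of control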; note: strong numbers were not always called active
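Assay system: HT1080 RFP-PRO-GFP cells | Dosing: 20 µM single dose, 1% DMSO | Incubation: Cells overnight before dosing, compound overnight, 37 °C, 5% CO2 | Evaluation: GFP/RFP fluorescence ratio | Control set: DMSO-only wells and HT1080 RFP-L50D-GFP cell wells as references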
UUG fidelity = modulators of yeast start codon fidelity, primary screen, whole organism, S. cerevisiae, single point, plate reader | activity score, % at 18.7 µM | S. cerevisiae UUG-firefly luciferase reporter, luminescence/redox ratio | 0.13% of 350,000 active;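 active = replicate mean at a twofold rise or more, about +100% in these data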;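 note: firefly luciferase made from a UUG start codon reports start codon fidelity; reporter light over untreated wells divided by growth signal over untreated wells; some hits fall short of that in this replicate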
eIF4H FP inh = human eIF4H binding inhibitors, primary screen, translation initiation inhibitor project, biochemical, uHTS, fluorescence polarization. Eukaryotic translation initiation factor 4H (Homo sapiens), Q15056. eIF4H fluorescence polarization binding assay. inhibition, % at 35 µM. 0.94% of 290,000 active;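 active = 50% or more with normal probe brightness, or confirmed in later tests; inconclusive = above 50% with abnormal brightness, or retests that disagree; inactive = below 50% or failed in later tests; about a fifth of its hits are not listed in these tables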;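 note: calls also rest on retests at 20 µM and on dose response follow-up; 0% = protein and probe with vehicle and 100% = probe without protein; strong numbers were not always called active; many hits fall short of the cut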
PABP polyA inh = PABP poly(A) RNA binding inhibitors, primary screen, biochemical, fluorescence polarization, uHTS; Polyadenylate-binding protein 1 (Homo sapiens), P11940; inhibition, % at 35 µM; 1% of 290,000 active; AID 2014, 2009;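 active = 50% or more with normal probe brightness, or confirmed in later tests; inconclusive = above 50% with abnormal brightness, or retests that disagree; inactive = below 50% or failed in later tests; about a fifth of its hits are not listed in these tables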;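 note: calls also rest on retests at 20 µM and on dose response follow-up; controls were probe without protein and protein plus probe with vehicle; some compounds called inactive have numbers as strong as hits; many hits fall short of the cut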
Target sequence (P11940 whole entry, looked up): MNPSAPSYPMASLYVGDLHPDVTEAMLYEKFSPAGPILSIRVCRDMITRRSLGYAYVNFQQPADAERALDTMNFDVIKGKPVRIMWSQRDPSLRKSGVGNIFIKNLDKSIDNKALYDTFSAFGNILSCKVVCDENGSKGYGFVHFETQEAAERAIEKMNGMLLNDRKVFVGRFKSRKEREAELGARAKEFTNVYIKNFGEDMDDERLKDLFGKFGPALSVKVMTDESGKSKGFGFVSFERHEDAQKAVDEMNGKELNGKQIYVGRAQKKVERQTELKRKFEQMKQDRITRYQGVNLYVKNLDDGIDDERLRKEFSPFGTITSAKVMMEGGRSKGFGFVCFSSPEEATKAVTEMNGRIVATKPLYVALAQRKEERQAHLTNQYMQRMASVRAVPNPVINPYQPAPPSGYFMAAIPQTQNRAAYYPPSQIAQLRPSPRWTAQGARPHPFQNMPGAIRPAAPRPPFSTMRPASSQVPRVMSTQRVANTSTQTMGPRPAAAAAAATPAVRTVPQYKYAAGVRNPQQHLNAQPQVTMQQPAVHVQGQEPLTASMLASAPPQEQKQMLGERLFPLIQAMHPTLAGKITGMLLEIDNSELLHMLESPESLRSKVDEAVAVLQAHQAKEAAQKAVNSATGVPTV
Rce1 inh = yeast Rce1p protease inhibitors, primary screen, biochemical, fluorescence, cell-free homogeneous; CAAX prenyl protease 2 (Saccharomyces cerevisiae (strain ATCC 204508 / S288c)), Q03530; yeast membranes, quenched prenylated peptide cleavage fluorescence; calls only; 0.27% of 290,000 active; AID 2563, 2010;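 active = fall in fluorescence gain of 50% or more versus controls, with final raw signal at or below 3038400; inconclusive = same 50% fall but final raw signal above 3038400; inactive = fall in fluorescence gain under 50%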;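 note: plate controls were neutral control wells for no effect and wells lacking membranes for full effect; tested at 10 µM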
Target sequence (Q03530 whole entry, looked up): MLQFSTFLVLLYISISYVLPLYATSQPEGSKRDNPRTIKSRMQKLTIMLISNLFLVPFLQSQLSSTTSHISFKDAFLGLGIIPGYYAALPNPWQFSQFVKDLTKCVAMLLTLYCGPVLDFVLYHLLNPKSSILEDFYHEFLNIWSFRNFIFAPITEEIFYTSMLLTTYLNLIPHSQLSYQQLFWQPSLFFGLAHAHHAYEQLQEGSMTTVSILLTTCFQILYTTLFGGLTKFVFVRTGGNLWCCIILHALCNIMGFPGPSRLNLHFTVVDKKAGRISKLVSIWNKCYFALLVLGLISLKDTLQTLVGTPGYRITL
HIV Env fusion = inhibitors of HIV-1 Env-driven cell-cell fusion, primary screen, HeLa-JRFL effector, CEM21 target cells, luciferase; inhibition, % at 12.3 µM; 1.1% of 360,000 active; AID 651610, 2012;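 active = mean replicate inhibition score of at least 50 and every replicate individually at or above 50; inconclusive = only one of the two criteria met; inactive = mean below 50 and not all replicates reaching 50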;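 note: 0% = plate neutral controls and 100% = maraviroc near 300 nM; one replicate is shown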
eIF4H FP inh retest = recorded beside eIF4H FP inh, whose call it bears; inhibition, %; compound at 20 µM; confirmation average;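 mean of two retest wells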
PABP polyA inh retest = second read-out of PABP polyA inh, no call of its own (marks repeat the call); inhibition, %; compound at 20 µM; confirmation repeats;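 mean of two retest wells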
MT1-MMP act inh RFP = recorded beside MT1-MMP act inh, whose call it bears; RFP signal change, %; measured here: RFP expression control read;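 0 = vehicle wells; hits needed this value within 50% of zero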
Starred values were filed as active, the others as inactive; i = inactive; ? = inconclusive; nt = not tested or not shown.

SMILES	CSC inhib	MT1-MMP act inh	MT1-MMP act inh RFP	UUG fidelity	eIF4H FP inh	PABP polyA inh	Rce1 inh	HIV Env fusion	others
CCOC(=O)c1c(NC(=O)CN2CCCCC2)sc2c1CCN(C(=O)OCC)C2	?	-7	-15	nt	3	2	i	nt
O=C(c1ccc2c(c1)OCO2)C1CCCN(Cc2c(F)ccc(F)c2F)C1 (stereo unspecified)	5	0	1	-4	1	-9	i	-3
Cc1ccc(S(=O)(=O)N2CCCCC2)cc1C(=O)NCCC1=CCCCC1	27	2	-7	nt	nt	nt	i	73*
CCc1nc2c(OCc3ccc(C(=O)N(C)C)cc3)cccn2c1N(C)C(=O)c1ccc(C)cc1	nt	3	1	-15	nt	nt	nt	18
CCOC(=O)c1cnn(-c2ccccc2)c1NC(=O)C(F)(F)C(F)(F)C(F)(F)F	-17	-14	-2	-4	-11	9	i	nt
Cc1cc(=O)n2ccsc2n1	3	12	15	-16	-10	-12	i	11
O=C(O)CN1CCCCC1	0	0	-4	nt	-7	5	i	4
N#CCc1ccc(Oc2ccc([N+](=O)[O-])cn2)cc1	-11	3	2	nt	-11	2	i	8
O=C(/C=C/N1CCN(Cc2ccccc2)CC1)C(F)(F)F	20	-2	1	-17	-5	2	i	-7
O=C(CCSc1nnc2ccccn12)Nc1ccc(F)cc1	3	6	7	nt	-6	-7	i	11
Cc1cc(C(=O)COC(=O)c2ccc3c(c2)NC(=O)CS3)c(C)n1CCc1ccc(Cl)cc1	15	0	2	nt	3	10	i	0
O=C(Nc1ccc2c(c1)OCCO2)C(CCc1ccccc1)N1CCN(c2ccc(F)cc2)CC1 (stereo unspecified)	nt	2	-5	-20	nt	nt	nt	14
CC(C)(C)OC(=O)N1CCC[C@H]1c1nnc(SCC(=O)Nc2ccc(Br)cc2)o1	-16	-6	-2	4	-14	-10	i	-3
Cc1nc2ccc(NS(=O)(=O)c3ccc(F)cc3)cc2s1	39	0	-8	nt	1	0	i	15
COC(=O)c1ccc(COc2ccc(/C=N/O)cc2OC)o1	6	4	4	-2	8	2	i	-12
COc1cc(/C=N/NC(=O)c2nc3ccccn3c2C)cc(OC)c1O	1	1	0	nt	1	8	i	8
COCCCN1C(=O)C2C(C(=O)Nc3cc(C)cc(C)c3)C3C=CC2(O3)C1C(=O)NC1CCCCC1 (stereo unspecified)	-15	-2	-1	-12	-4	4	nt	-2
O=C(Nc1ccc2c(c1)OCCO2)C1CCN(C(=O)c2ccc(Cl)cc2)CC1	nt	-8	-7	nt	1	-9	i	21
Cn1c(=O)n(C)c2cc(NS(=O)(=O)c3ccc(F)cc3)ccc21	-7	14	9	nt	-3	-21	i	-22
Cc1cc(CNC(=O)c2ccc3nc(Cc4ccccc4F)oc3c2)nn1C	4	-4	-5	-3	-7	1	i	-69
O=C(c1ccc(F)cc1)C1CCN(S(=O)(=O)c2ccccc2)CC1	-5	6	-3	nt	4	-3	i	3
CCCNC(=O)N(CCOC)CC1CCCN(C2Cc3ccccc3C2)C1 (stereo unspecified)	-14	-3	5	-5	1	4	i	-37
Oc1ccc(Nc2nc(NCC3CCCO3)c3ccccc3n2)cc1 (stereo unspecified)	nt	10	8	-5	-4	2	i	-11
Cc1onc(-c2ccc3c(c2)OCO3)c1-c1ccc2[nH]ccc2c1	54	-3	-11	-11	4	-9	i	-6
CC(=O)N1CC(c2ccccc2)C(c2ccc(Cl)cc2)=N1 (stereo unspecified)	-2	1	0	-3	0	-3	i	nt
(cont.)
SMILES	CSC inhib	MT1-MMP act inh	MT1-MMP act inh RFP	UUG fidelity	eIF4H FP inh	PABP polyA inh	Rce1 inh	HIV Env fusion	others
Cc1c(S(=O)(=O)N2CCN(c3ccccc3)CC2)c(=O)n(C)c(=O)n1C	-9	8	9	-16	-12	-6	i	-12
COc1cccc(OCCCCSc2ncccn2)c1	6	-2	-4	-10	3	-1	i	nt
Cc1ccc(-n2sc3ccccc3c2=O)cc1	17	4	2	nt	8	-10	i	25
Cc1ccc(Nc2ccc(C(F)(F)F)cc2[N+](=O)[O-])cc1	27	-5	1	-16	-5	-15	i	nt
CCCS(=O)(=O)NC(=O)C1(C)CCN(C(=O)c2ccccc2OC(C)=O)C1 (stereo unspecified)	nt	-1	3	-17	nt	nt	nt	9
COCCN(C(=O)CSc1nc2ccc(Cl)cc2[nH]1)c1c(N)n(Cc2ccccc2)c(=O)[nH]c1=O	-6	-1	3	5	12	4	i	15
N#CCC(=O)Nc1cc(C(F)(F)F)ccc1N1CCOCC1	-5	-4	-1	nt	-6	-6	i	-20
Cn1c(=O)n(C)c2cc(CN3C(=O)OC(C)(C)C3(C)O)ccc21 (stereo unspecified)	-5	2	6	-22	1	-3	i	-3
CC12CN3CCN(CC(C3)/C1=N\N=C1/C3CN4CCN(C3)CC1(C)C4)C2	4	-36	-15	-11	-12	-2	i	-2
CCOC(=O)Cc1csc(NC(=O)CSc2nnnn2-c2ccc(C)c(C)c2)n1	-3	1	-3	-10	-5	-4	i	-12
COc1ccc(-c2ccc3c(=O)cc(-c4ccsc4)oc3c2)cn1	11	-3	-1	-14	nt	nt	nt	-44
CCCCCCC1C(C#N)=C(N)OC2=C1C(=O)CC(C)(C)C2 (stereo unspecified)	-7	-2	-1	5	8	8	i	?
Cc1ccc(/C=N/NC(=O)c2ccc3c(c2)OCCO3)s1	92*	3	-2	nt	-9	-7	i	-38
O=S(=O)(Cc1ccc(Cl)cc1)N1CCN(Cc2ccccc2)CC1	-6	2	2	nt	-2	2	i	nt
CCOc1ccc2sc(NS(=O)(=O)c3ccc(N)cc3)nc2c1	0	-1	4	-20	-10	2	i	-1
CCc1ccc(-n2c(C)n[nH]c2=S)cc1	-10	7	9	nt	-5	0	i	-13
CC(OC(=O)c1cccc(S(=O)(=O)N2CCCC2)c1)C(=O)NC1CCCCC1C (stereo unspecified)	-11	-3	3	nt	nt	nt	i	7
CCc1nnc(NC(=O)CSCc2cc(=O)n3nc(C(C)C)sc3n2)s1	-8	3	5	-3	1	1	i	0
CCc1ccc(C(=O)COC(=O)c2ccccc2OC)cc1	-13	3	6	-68	-20	-2	nt	-15
O=C(NCc1ccco1)C1CCCN(S(=O)(=O)c2cnc[nH]2)C1 (stereo unspecified)	11	1	7	-11	8	2	i	-26
Cc1ccccc1Nc1nc(N)nc(COC(=O)CCS(=O)(=O)c2ccccc2)n1	-14	6	2	-20	6	-8	i	10
N#CNC(=Nc1cccc(F)c1)SCc1ccccc1F	24	-5	-8	nt	-8	-2	i	5
C=CCN(C(=O)Cn1ncc2c1-c1cc(C)ccc1OC2)c1ccccc1	-5	1	1	-7	1	12	i	25
CC(=O)c1cccc(NC(=S)N2CCN(c3ccccn3)CC2)c1	-1	7	-1	-24	2	8	i	-17
O=C1c2ccccc2C(=O)C1c1ccncc1	7	5	3	-36	-1	23	i	nt

Part of the list above in order of formula weight, lowest first:
SMILES	CSC inhib	MT1-MMP act inh	MT1-MMP act inh RFP	UUG fidelity	eIF4H FP inh	PABP polyA inh	Rce1 inh	HIV Env fusion	others
Cc1ccc(Nc2ccc(C(F)(F)F)cc2[N+](=O)[O-])cc1	27	-5	1	-16	-5	-15	i	nt
N#CCC(=O)Nc1cc(C(F)(F)F)ccc1N1CCOCC1	-5	-4	-1	nt	-6	-6	i	-20
COc1ccc(-c2ccc3c(=O)cc(-c4ccsc4)oc3c2)cn1	11	-3	-1	-14	nt	nt	nt	-44

The results go on:
SMILES	CSC inhib	MT1-MMP act inh	MT1-MMP act inh RFP	UUG fidelity	eIF4H FP inh	PABP polyA inh	Rce1 inh	HIV Env fusion	others
CCCC(=O)NC(c1cccc([N+](=O)[O-])c1)c1ccc2cccnc2c1O (stereo unspecified)	nt	1	-6	-5	nt	nt	nt	92*
CCC1(CC)NC(=S)N(Nc2ccccc2)C1=O	-2	2	1	-2	2	-6	i	-58
Cc1cc(Cl)ccc1NC(=S)NCc1ccccc1	-10	0	-2	-23	2	-3	i	-50
COc1ccc(N2CCN(c3oc(COc4ccc(Cl)cc4)nc3C#N)CC2)cc1	-4	4	-6	-16	18	5	i	nt
COc1ccc(CCNC(=O)c2ccc3c(=O)n(Cc4ccco4)c(=S)[nH]c3c2)cc1OC	-2	-10	-3	9	73*	22*	i	-27	eIF4H FP inh retest=81*;PABP polyA inh retest=65*
O=C(Nc1ccccc1)c1cccc(-c2nnc(-c3ccccc3)o2)c1	5	0	5	-22	-2	2	i	nt
CN(C)S(=O)(=O)Nc1ccccc1F	-2	-2	0	nt	-4	0	i	3
Cc1ccc(C(=O)NC(O)C(Cl)Cl)cc1 (stereo unspecified)	-5	-1	7	-17	-1	2	i	-26
OCC[C@@H]1C[C@@H](O)[C@H](O)[C@@]2(CCCc3ccccc3O2)O1	0	-2	5	-20	-4	-8	i	9
COc1ccc([N+](=O)[O-])cc1NCC(=O)c1ccc(C)cc1	-9	5	9	-15	-2	7	i	1
COc1ccc(N(C(=O)c2ccccc2OC)C2C=CS(=O)(=O)C2)c(OC)c1 (stereo unspecified)	-3	0	0	-9	-10	5	i	nt
CCn1nnnc1SCC(=O)c1cccc(OC)c1	-9	1	-1	-16	-1	7	i	1
Cc1cc(C(=O)N2CCc3ccccc32)c2ccccc2n1	-8	4	7	-15	-3	-4	i	11
O=C(NC1CCSC1=O)c1cccc(Cl)c1 (stereo unspecified)	-2	-1	0	-22	-1	-4	i	-9
CCCn1c(=O)[nH]c(=O)c2c1nc(-c1ccc3c(c1)OCCO3)n2CCN1CCOCC1	-20	-6	-4	-9	7	14	i	-141
CC(C)(C)NC(=O)NC(=O)COC(=O)CNS(=O)(=O)c1ccc(Br)cc1Cl	3	-2	2	5	-6	-8	i	5
CC(=O)c1ccc(OCC(=O)Nc2ccccc2N2CCCC2)cc1	-4	-5	-1	-5	0	2	i	nt
Fc1ccccc1COc1ccccc1/C=N/Nc1nc(N2CCCC2)nc(N2CCCC2)n1	12	0	-2	-9	-6	0	i	-5
COc1ccc(NC(=O)CCNC(=O)c2ccco2)cc1OC	18	2	5	-9	9	13	i	-12
C#CC1(NC(=O)N(C)C)CCCCC1	-18	-2	-1	nt	-3	-2	i	-2
C/C(=C\C(=O)c1ccc(Br)cc1)NCc1ccccc1	nt	2	2	0	-2	3	i	nt
Fc1ccccc1N1CCN(C(c2ccccn2)c2nnnn2C2CCCCC2)CC1 (stereo unspecified)	-9	0	-1	5	1	10	i	-8
CCOC(=O)C1CCN(Cc2cc(=O)oc3cc(C)c(Cl)cc23)CC1	-7	0	-1	-6	-2	4	i	15
COC(=O)C(C)N(C(=O)c1cccc(Cl)c1)c1c(C)cccc1C (stereo unspecified)	-7	-2	0	19	3	7	i	5
CC(C)(C)c1ccc(-c2n[nH]c(=S)n2C2CCCC2)cc1	nt	-1	-20	-8	-3	2	nt	nt
Nc1ccc2oc(CCc3ccccc3)nc2c1	-2	7	7	-12	-1	-6	i	nt
CCn1cc([N+](=O)[O-])c(C(=O)N2N=C3/C(=C/c4cccs4)CCCC3C2c2cccs2)n1 (stereo unspecified)	-7	-4	-11	-10	-9	2	i	20

Rows were taken by chance. Share with any hit: about 3%.
